Compound activity: PubChem, Johns Hopkins Ion Channel Center
KCNQ2 pot = potentiators of rat KCNQ2 potassium channel; B-score at 10 µM; Potassium voltage-gated channel subfamily KQT member 2 (Rattus norvegicus), O88943; 310,000 tested, 0.54% active; CHO-K1 KCNQ2, FluxOR thallium flux fluorescence; hits give high values;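 active means fluorescence ratio B-score at least 3 SD of library B-scores, with initial fluorescence B-score within 3 SD, cut at about 5.3 in these data; same plate scores as AID 2156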;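 further: B-score of peak minus minimum over baseline fluorescence ratio after K+ and Tl+ stimulus; positive B-score means potentiation of KCNQ2 with more thallium influx and brighter signal; only the inactives scoring about 0 or higher are listed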
Target sequence (O88943 whole entry, looked up): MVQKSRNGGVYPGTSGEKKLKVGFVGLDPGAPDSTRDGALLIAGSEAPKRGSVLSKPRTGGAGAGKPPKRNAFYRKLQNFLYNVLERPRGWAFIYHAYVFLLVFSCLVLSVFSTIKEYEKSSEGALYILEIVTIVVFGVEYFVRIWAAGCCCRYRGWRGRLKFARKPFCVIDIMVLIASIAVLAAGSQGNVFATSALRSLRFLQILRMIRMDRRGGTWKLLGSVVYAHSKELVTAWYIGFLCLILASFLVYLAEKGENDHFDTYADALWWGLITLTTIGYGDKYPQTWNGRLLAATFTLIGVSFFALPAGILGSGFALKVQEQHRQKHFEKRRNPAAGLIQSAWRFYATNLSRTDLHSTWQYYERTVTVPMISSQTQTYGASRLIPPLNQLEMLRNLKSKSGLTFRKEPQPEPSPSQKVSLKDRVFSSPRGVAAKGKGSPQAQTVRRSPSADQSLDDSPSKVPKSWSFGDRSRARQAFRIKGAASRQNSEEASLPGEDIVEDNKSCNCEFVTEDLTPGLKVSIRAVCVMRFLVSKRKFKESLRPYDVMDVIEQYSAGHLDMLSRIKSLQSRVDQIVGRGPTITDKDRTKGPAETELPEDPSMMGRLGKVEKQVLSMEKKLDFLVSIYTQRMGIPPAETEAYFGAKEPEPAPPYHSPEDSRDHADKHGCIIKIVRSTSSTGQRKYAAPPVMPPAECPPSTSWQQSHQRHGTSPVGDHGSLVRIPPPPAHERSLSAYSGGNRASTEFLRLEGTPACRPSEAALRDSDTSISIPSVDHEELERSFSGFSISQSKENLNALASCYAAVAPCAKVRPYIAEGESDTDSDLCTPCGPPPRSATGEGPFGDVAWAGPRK
KCNQ2 pot baseline = recorded beside KCNQ2 pot, whose call it bears; B-score; compound at 10 µM; measured here: initial fluorescence intensity artifact check;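 brightness before thallium and not channel activity; 0 = typical well and far values either way flag optical interference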
* marks the source's active call; other numbers are inactive results. Only part of the results is shown. The share of hits here may be higher or lower than overall.

SMILES	KCNQ2 pot	KCNQ2 pot baseline
CC(C)C(=O)NC(=S)Nc1ccc(S(=O)(=O)N(C)C)cc1	1.11	0.45
CCN(CC(=O)Nc1ccc(OC)cc1)C(=O)c1ccccc1Sc1ccccc1C#N	1.63	0.72
CCCc1cc(C(=O)NNC(=S)NCC2CCCO2)cs1 (stereo not given)	0.54	1.27
Cc1ccc(C(=O)N2CCN(c3ccc(C(F)(F)F)cn3)CC2)cc1	0.22	1.39
COc1ccc(OCC(=O)N2CCN(C(=O)Cc3ccccc3)CC2)cc1	0.35	-0.24
COc1ccc(NC(=O)NCc2ccc3c(c2)OCO3)c(OC)c1	0.06	1
Cc1cc(C)cc(NC(=O)N2CCC(NC(=O)c3ccc(F)cc3)CC2)c1	2.34	-1.46
CC(=O)Nc1ccc(NC(=O)C2CCCN(C(=O)c3ccc(Cl)cc3)C2)cc1 (stereo not given)	0.02	1.7
CCOc1ccccc1NC(=O)CN1CCC(NC(=O)c2ccccc2)CC1	0.78	-2.16
O=C(O)c1ccccc1SCc1cn2cc(Br)ccc2n1	0.22	2.23
Cc1cc(NC(=O)CCCN2C(=O)c3cccc4cccc(c34)C2=O)no1	0.33	-1.83
Cc1cc(C)c(C)c(OCCCN(C)C)c1	0.67	0.65
O=C(N/N=C/CCc1ccccc1)C1CCCCC1	0.6	0.37
COC(=O)CC1C(=O)NCCN1C(=S)Nc1cccc(C(F)(F)F)c1 (stereo not given)	0.8	-0.09
COCCOC1CCN(C(=O)C2CCC(=O)N(CCc3ccccc3)C2)CC1 (stereo not given)	0.48	1.38
COc1ccc(OCc2cc(-c3ccc(Cl)cc3)no2)cc1	0.67	0.62
CCOc1ccc(C(=O)Nc2c3c(nn2-c2cccc(C)c2C)CS(=O)C3)cc1 (stereo not given)	1.85	-0.73
O=C(CNc1n[nH]c(=O)[nH]c1=O)N/N=C/C1CC=CCC1 (stereo not given)	0.14	-0.63
CC(C)n1c(N2CCN(C(=O)c3cccs3)CC2)nc2ccccc21	0.08	0.26
CC(=O)NC(CCS(C)(=O)=O)C(=O)Nc1cc(C)on1 (stereo not given)	0.09	0.86
O=C(Nc1ccc(CN2CCOCC2)cc1)c1ccc(-c2cccc([N+](=O)[O-])c2)o1	0.45	-0.36
CC(C)COP(=O)(OCC(C)C)C(O)c1ccc(F)cc1 (stereo not given)	0.03	0.79
Cc1ccc(S(=O)(=O)NC(=O)NCc2ccc(F)cc2)cc1	1.03	-1.21
CCCCNc1ncnc2c1cnn2-c1ccccc1	0.46	-0.14
COC(=O)C1=C(C)N(C)C(=O)NC1c1ccccc1 (stereo not given)	0.45	-3.29
CCOC(=O)c1c(C)[nH]c(C(=O)N2CCc3cc(OC)c(OC)cc3C2)c1C	0.6	-0.69
O=C(NCC1CCCO1)C(=O)N/N=C/c1ccccc1C(=O)O (stereo not given)	0.71	0.88
CN(C)S(=O)(=O)c1cccc(C(=O)NCC(C)(C)CNC(=O)c2cccc(S(=O)(=O)N(C)C)c2)c1	0.11	-1.39
CCN(CCn1cccn1)Cc1cn[nH]c1-c1ccc(OC)cc1F	0.95	-0.97
O=C(NC1CC1)C1CCN(C2CCN(C(=O)Cc3ccc(F)cc3)CC2)CC1	0.99	-0.51
CS(=O)(=O)c1ccc2nc(NC(=O)CN3CCOCC3)sc2c1	2.23	-0.09
Cc1c(NC(=O)CN(c2ccccc2)S(=O)(=O)c2ccc(F)cc2)c(=O)n(-c2ccccc2)n1C	1.12	-0.04
COc1cccc(N(CC(=O)NCCN2CCOCC2)S(=O)(=O)c2ccccc2)c1	1.28	-0.68
COc1ccc(/C=N/NC(=O)c2nnn(-c3nonc3N)c2-c2cccs2)c(OC)c1	1.43	0.14
CN1CCN(c2cc(=O)n(Cc3ccc(F)cc3)c(=O)[nH]2)CC1	0.07	0.17
COc1ccc(C(=O)COC(=O)c2ccccc2C(=O)N(C)c2ccccc2)c(OC)c1	1.44	2.88
Cn1c(=O)c2c(SCC(=O)Nc3ccccc3F)nc(C3CC3)nc2n(C)c1=O	1.35	-1.61
COc1ccc(S(=O)(=O)CCC(=O)Nc2cc(C)ccc2OC)cc1	0.3	-1.37
CCN1/C(=C(\O)c2ccccc2)C(=O)c2ccccc2S1(=O)=O	0.05	2.02
CC1CC(C)CN(C(=O)c2cc3c(=O)n4ccccc4nc3s2)C1 (stereo not given)	0.12	-0.03
COc1ccc(CC2SC(N)=NC2=O)cc1 (stereo not given)	1.88	0.61
O=C(CCn1[nH]c(=O)c2ccccc2c1=O)N1CCOCC1	1.68	-1.23
CCOC(=O)c1cnc2cc(F)c(F)cc2c1N1CCOCC1	0.64	0.03
Cc1ccc(-c2nnn(CC(=O)N(CC(=O)NC(C)C)c3cnc4ccccc4c3)n2)o1	0.02	0.01
Cc1nc2c([nH]c3ccccc32)c(=O)n1N	1.51	-0.02

Gathered by group: those above containing a Cl atom
SMILES	KCNQ2 pot	KCNQ2 pot baseline
CC(=O)Nc1ccc(NC(=O)C2CCCN(C(=O)c3ccc(Cl)cc3)C2)cc1 (stereo not given)	0.02	1.7
COc1ccc(OCc2cc(-c3ccc(Cl)cc3)no2)cc1	0.67	0.62

Fetched by structure from the entries so far:
SMILES	KCNQ2 pot	KCNQ2 pot baseline
Cc1c(NC(=O)CN(c2ccccc2)S(=O)(=O)c2ccc(F)cc2)c(=O)n(-c2ccccc2)n1C	1.12	-0.04
COc1ccc(/C=N/NC(=O)c2nnn(-c3nonc3N)c2-c2cccs2)c(OC)c1	1.43	0.14
Cc1nc2c([nH]c3ccccc32)c(=O)n1N	1.51	-0.02
CN1CCN(c2cc(=O)n(Cc3ccc(F)cc3)c(=O)[nH]2)CC1	0.07	0.17

(further entries)
SMILES	KCNQ2 pot	KCNQ2 pot baseline
Cc1ccccc1-n1c(N)cc(=O)[nH]c1=S	0.36	-1.61
COCc1cc(C)nc(SCC(=O)NCC2CCCO2)c1C#N (stereo not given)	1.45	-0.02
CCOc1ccc(C(=S)NC2CCCCC2)cc1OC	0.66	0.4
CC1(C)CC(=O)N(CC(=O)NC2CCCC2)c2ccccc2S1(=O)=O	1.21	1.5
COc1ccc(Br)cc1S(=O)(=O)NCCCN1CCOCC1	0.07	1.17
C/C(=N\NC(=O)c1ccc(CSc2nncn2C)cc1)c1ccc(Cl)cc1	0.18	-0.63
CCCNC(=O)c1c(O)c2c([nH]c1=O)CCCC2	0.23	0.71
COC(=O)c1cccc(NC(=O)NC23CC4CC(CC(C4)C2)C3)c1	0.76	0.97
COc1ccc(Nc2cc(Nc3cc(OC)c(OC)c(OC)c3)ncn2)cc1	0.36	-0.21
CCOc1ccc(CNC(=O)c2ccc(Sc3ccc(C)cc3)c(NC(C)=O)c2)cc1OC	0.45	-0.01
Cc1cc(C(=O)CSc2nc(N)cc(=O)[nH]2)c(C)n1-c1ccc(OC(F)F)cc1	0.04	-0.6
Cc1nc2c(=O)oc3ccccc3c2n1-c1ccccc1	0.06	0.68
COc1ccc(OC)c(C(=O)NC(CC(N)=O)c2ccc(N3CCCCCC3)c([N+](=O)[O-])c2)c1 (stereo not given)	0.04	0.13
O=C(N/N=C/c1cccc(Cl)c1)C(c1ccncc1)N1CCOCC1 (stereo not given)	0.56	-0.04
Cc1nn2c(c1-c1ccccc1)NC1=C(C(=O)CCC1)C2c1ccccc1 (stereo not given)	5.18	4.05
O=C(CN(Cc1ccccc1)S(=O)(=O)c1ccc(Br)cc1)N/N=C/c1ccccc1C(=O)O	0.01	-2.89
COc1ccc(-n2c(=O)c3ccccc3n(CC(=O)NCc3ccco3)c2=O)cc1	0.28	1.02
c1ccc(-c2nc(N3CCOCC3)c3ccccc3n2)nc1	0.17	2.49
Cc1ccc(NC(=O)Cn2cc(C(=O)C3CC3)c3ccccc32)cc1	0.6	0.5
O=C(Nc1nc2c(Cl)c(Cl)ccc2s1)C1CC1	0.02	-2.4
Cc1cccc(C(=O)Nc2ccc(S(=O)(=O)N3CCOCC3)cc2C)c1	0.17	1.82
CC(=O)Nc1ccc(NC(=O)c2sc3nc4n(c(=O)c3c2C)CCCCC4)cc1	1	-0.29
CSCC(=O)N1CCCC(CNC(=O)c2ccccc2Cl)C1 (stereo not given)	1.56	-0.82
Fc1ccccc1NC(=S)Nc1ccc(Br)cc1	0.97	-1.66
Cc1ccc(CNn2cn[nH]c2=S)cc1	0.76	0.31
Cc1ccc(C(=O)COc2ccc3c(C)cc(=O)oc3c2)cc1	0.37	0.23
Cc1cc(C)nc(SCc2cn3c(C)cc(C)nc3n2)n1	1.92	-1.99
CCCc1nnc(SCC(=O)O)n1CC	1.28	-0.29
COCc1nnc(NC(=O)c2cc(OC)c(OC)cc2[N+](=O)[O-])s1	0.93	-0.56
CCn1c(CNC(=O)c2ccc(F)cc2)cc2ccccc21	3.59	-1.11

Ordered by value in KCNQ2 pot (lowest first): some entries from above.
SMILES	KCNQ2 pot	KCNQ2 pot baseline
Cc1cccc(C(=O)Nc2ccc(S(=O)(=O)N3CCOCC3)cc2C)c1	0.17	1.82
Cc1ccc(C(=O)COc2ccc3c(C)cc(=O)oc3c2)cc1	0.37	0.23
COCc1nnc(NC(=O)c2cc(OC)c(OC)cc2[N+](=O)[O-])s1	0.93	-0.56
CCCc1nnc(SCC(=O)O)n1CC	1.28	-0.29

Continued:
SMILES	KCNQ2 pot	KCNQ2 pot baseline
O=C(CSc1ccc(Cl)cc1)Nc1cccc(NC(=O)c2ccco2)c1	2.22	0.6
O=C(O)c1cccc(S(=O)(=O)N2CCOCC2)c1	0.38	0.47
Cc1cccc(NC(=O)C(=O)NCC2CCCO2)c1 (stereo not given)	0.6	2.35
CCCNC(=O)NC(=O)CSc1nc2ccccc2c(=O)n1Cc1ccncc1	0.17	0.07
C=CCNCc1cccn1-c1sc2c(c1C#N)CCCC2	0.43	1.7
Cc1ccc(C2(C)NC(=O)N(CC(=O)N3CCN(S(=O)(=O)c4cccc(F)c4)CC3)C2=O)cc1 (stereo not given)	0.98	-0.39
COc1ccccc1OCCn1c(SCC(N)=O)nc2ccccc21	0.37	-0.19
CN(Cc1ccccc1)c1c([N+](=O)[O-])c(=O)n(C)c2ccccc12	2.09	-1.92
COCCCn1c(C)csc1=Nc1cccnc1	1.45	0.11
COC(=O)Cn1ncc(N(C)Cc2ccccc2)c(Cl)c1=O	0.39	-0.18
CC(C)c1ccc(NC(=S)NCc2cccs2)cc1	0.29	0.94
COc1ccc(-c2nc(C)ncc2-c2ccccc2)c(O)c1	0.85	1.47
O=C(NC1CCCC1)C(c1ccncc1)N(C(=O)c1csnn1)c1ccc(F)cc1 (stereo not given)	0.51	0.18
CCOc1ccccc1NC(=S)NCCCn1ccnc1	0.62	0.09
Cc1cccc(OCCCN2CCOCC2)c1	0.18	0.04
O=C(CSc1nnc(-c2ccco2)o1)N1CCOCC1	0.04	-0.46
O=S(=O)(NCC1CCCN(Cc2ccccc2)C1)c1cccc2cccnc12 (stereo not given)	0.32	-0.2
CC(C)(C)c1ccc(OCC(=O)O/N=C(\N)c2ccncc2)cc1	1.03	-1.33
O=C(c1cccnc1)N1CCc2ccccc21	0.77	0.41
Cc1cc(C)nc(N2CCCC(C(=O)Nc3ccc(F)cc3)C2)n1 (stereo not given)	0.87	-0.26
COc1ccc(NC(=O)c2cc3ccccc3o/c2=N\NS(=O)(=O)c2ccc(C)cc2)cc1	0.29	0.67
C#CCOCCOCCOCCNc1nc(N2CCOCC2)nc(N2CCN(C(=O)Cn3cc(CC(C)O)nn3)CC2)n1 (stereo not given)	0.88	-1.11
COC(=O)c1sc(N2C(=O)C(=O)/C(=C(/O)c3ccccc3)C2c2ccco2)nc1C (stereo not given)	0.25	0.59
CN(CC(=O)Nc1cccc(F)c1)C(=O)c1cccc(S(=O)(=O)N2CC3(C)CC2CC(C)(C)C3)c1 (stereo not given)	9.15*	2.61*
O=C(NCCn1c(C(F)(F)F)nc2ccccc21)[C@H]1CCCN1c1nc(CN2CCCCC2)cs1	0.81	0.79
NC(=O)c1ccc(NC(=O)COC(=O)c2cc([N+](=O)[O-])ccc2N2CCOCC2)cc1	0.13	-1.24
CCC(C(=O)OCC(=O)c1ccc2c(c1)NC(=O)CO2)c1ccccc1 (stereo not given)	1.66	2.18
O=C(c1ccc(F)cc1)N1CCC(C(=O)N2CCN(S(=O)(=O)c3ccccc3Br)CC2)CC1	0.73	0.11
Cc1ccc(NC(=O)CN(C)CC(=O)Nc2cccc(F)c2)cc1S(=O)(=O)N1CCCCCC1	0.19	0.72
C=CCn1c(SCC(=O)NC2CCCCC2)nnc1C(C)NC(=O)c1cccs1 (stereo not given)	0.01	0.29
Cc1nc(C)n(C(C)CNC(=O)c2ccco2)n1 (stereo not given)	0.33	0.44
COc1ncccc1C(=O)N1CCCC(N2CCN(c3ccc(F)cc3)CC2)C1 (stereo not given)	0.57	1.02
Cc1ccc(C23CC4CC(CC(C(=O)NN)(C4)C2)C3)cc1	2.9	-0.07
CCOc1ccc(N2C(=O)CC(NC3CCCCNC3=O)C2=O)cc1 (stereo not given)	0.86	0.03
OCCC1CN(Cc2nc(-c3ccccc3)cs2)CCN1CCc1ccccc1 (stereo not given)	0.48	-2.9
CC(C)Oc1ccc(C2CC(=O)N(C)C2=O)cc1 (stereo not given)	0.8	-0.37
COC(=O)c1ccc(CNC(=O)COC(=O)C2CC3C=CC2C3)cc1 (stereo not given)	0.03	2.12
COc1ccc(-c2csc(N=C(N)N)n2)cc1	1.33	1
Cc1ccc(Cl)cc1NC(=O)NCCN1CCCCC1	0.42	-0.53
COc1cc(OC)cc(C(=O)NNS(=O)(=O)c2ccc(F)cc2)c1	1.34	-0.66
